Screening results: PubChem, National Center for Advancing Translational Sciences (NCATS)
TRPV1 PAM – human TRPV1 potentiation. TRPV1-expressing cells, Fluo-8 calcium influx, capsaicin EC20 potentiation; host cell line not named in the record; control for the full effect not named in the record. 0.02% of 320,000 active. Q8NER1. potentiation, % at 8.33 µM. AID 540277; active means potentiation above 80%; inconclusive means 30% to 80%; inactive means below 30%; further: 0% is about no effect
Target sequence (Q8NER1 whole entry, looked up): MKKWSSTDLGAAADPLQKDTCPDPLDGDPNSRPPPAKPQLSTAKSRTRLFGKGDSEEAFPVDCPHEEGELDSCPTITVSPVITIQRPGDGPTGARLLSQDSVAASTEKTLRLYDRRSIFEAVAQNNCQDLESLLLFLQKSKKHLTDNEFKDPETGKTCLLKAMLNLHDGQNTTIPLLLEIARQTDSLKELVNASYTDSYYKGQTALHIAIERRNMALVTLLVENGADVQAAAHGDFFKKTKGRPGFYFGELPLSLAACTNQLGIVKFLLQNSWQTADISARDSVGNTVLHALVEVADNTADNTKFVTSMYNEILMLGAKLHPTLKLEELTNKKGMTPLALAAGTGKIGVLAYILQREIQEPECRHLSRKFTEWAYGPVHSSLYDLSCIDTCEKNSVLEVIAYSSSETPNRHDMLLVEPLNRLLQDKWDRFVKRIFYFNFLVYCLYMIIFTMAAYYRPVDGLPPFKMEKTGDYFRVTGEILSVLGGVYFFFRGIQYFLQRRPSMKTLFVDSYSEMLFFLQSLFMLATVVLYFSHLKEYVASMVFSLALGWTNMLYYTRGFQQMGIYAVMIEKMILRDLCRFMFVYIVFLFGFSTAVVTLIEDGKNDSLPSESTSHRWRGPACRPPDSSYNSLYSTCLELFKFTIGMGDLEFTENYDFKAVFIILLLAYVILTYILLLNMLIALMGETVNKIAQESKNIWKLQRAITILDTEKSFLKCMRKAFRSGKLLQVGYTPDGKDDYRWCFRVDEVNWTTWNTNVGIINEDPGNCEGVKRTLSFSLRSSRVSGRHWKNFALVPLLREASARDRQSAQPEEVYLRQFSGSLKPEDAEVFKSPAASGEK
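Cells expressing TRPV1 were dye-loaded with Fluo-8 and read kinetically: 10 s baseline, 3 min after compound (agonist portion), then 2 min after EC20 capsaicin (allosteric enhancer portion). Calcium-bound dye fluorescence at 480/520 nm.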
Menin-MLL FL inh – inhibitors of human menin-MLL interaction, wild-type MLL peptide | Fluorescence polarization, fluorescein-MLL peptide displacement from menin | FP activity change, % at 61.4 µM | 290,000 tested, under 10 active; inconclusive = falling polarisation curve, or a change in total fluorescence; inactive = total fluorescence flat and polarisation flat or rising; no compound was filed as active; the % refers to the polarisation; negative = inhibition;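 further: % of control where 0% means no effect; inhibitors lower the polarisation; unlabelled MLL peptide was the positive control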
gsp antag – antagonizes gsp, the McCune-Albright syndrome mutation | gsp-mutant cells, cAMP HTRF, 30 min; control for the full effect not named in the record | Potency, µM (highest dose often 76.9 µM), for the others: top-dose activity change, negative = inhibition, actives largely listed as inhibitors | 0.4% of 340,000 active | AID 624288; active = falling curve of any shape with a large fitted effect; inconclusive = falling curve, mostly with a smaller effect; inactive = flat or rising curve; cell line not stated here;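 further: intracellular cAMP measured with PDE inhibitor Ro 20-1724 present during compound exposure; potency means the concentration at half of the fitted maximal effect; on the % scale 0 is the no-effect control and ±100 the full control effect; nearly all actives have a fitted effect of over 65% in size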
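HTRF cAMP measurement after 30 min RT detection following 30 min, 37C compound treatment alongside […] (added as 300 uM solution) in G418-selected cells seeded at 2000/well and grown 16–24 h.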
D2 potentiator – positive allosteric modulators of human D2 dopamine receptor; DiscoveRx D2 beta-arrestin cells, luminescence, 90 min; 100% = 57 uM dopamine signal; P14416; potentiation, % (test concentration not listed); 0.23% of 360,000 active; AID 624464; active = potentiation of 50% or more; inconclusive = 30% to 50%; inactive = 30% or less;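 further: compound concentration not given in the record; tested on top of an EC20 dose of dopamine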
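PathHunter beta-arrestin assay in DiscoveRx D2 cells. Compounds were added with an EC20 of dopamine (50 nM final) for 90 min at 37 deg C. Luminescence was read 1 h after detection reagent, with 57 uM dopamine as the EC100 control.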
gsp ag – gsp mutant agonism | gsp mutant cells, cAMP HTRF, 30 min; control for the full effect not named in the record | Potency, µM (titrated, usually from 76.9 µM), for the others: top-dose activation (cAMP increase), hits mostly activators | 0.13% of 340,000 active | AID 624287; active = well fitted activation curve with a large enough effect; inconclusive = small, poorly fitted or top-dose-only effect, or another doubt; inactive = no such curve, though single readings can be large or run the other way; cell line not stated here;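 further: phosphodiesterase inhibitor Ro 20-1724 added with compounds to block cAMP breakdown; potency means the concentration at half of the fitted maximal effect; nearly all actives have a fitted effect of over 60% in size; about a fifth of the inactives were tested at one dose only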
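Cells stably selected in G418 were plated at 2000/well, grown 16-24 hr, then given compounds in DMSO with the PDE inhibitor […] (300 uM solution added) for 30 min at 37C; cAMP was read by HTRF.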
ClpP mod – qHTS Assay for Activators of ClpP; Potency, µM (top dose mostly 57.5 µM), for inactives: at the highest dose activity change, negative = active; 1.9% of 340,000 active; purified B. subtilis ClpP, FRET peptide cleavage, 20 min; active = well fitted falling curve with a large enough effect; inconclusive = small, poorly fitted or top-dose-only effect; inactive = no such curve, though single readings can be large or run the other way; further: potency means the concentration at half of the fitted maximal effect; the source files actives as falling curves though it sought activators and does not explain the sign; nearly all actives have a fitted effect of over 65% in size; many hits overshoot -100%
Target sequence (P80244 whole entry, looked up): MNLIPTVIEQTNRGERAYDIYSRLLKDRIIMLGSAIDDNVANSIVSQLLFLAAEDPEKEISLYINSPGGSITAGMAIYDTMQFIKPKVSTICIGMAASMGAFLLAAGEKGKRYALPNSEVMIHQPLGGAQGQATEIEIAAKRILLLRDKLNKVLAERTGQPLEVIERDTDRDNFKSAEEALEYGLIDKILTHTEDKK
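Buffer: 100 mM Tris/HCl pH8, 100 mM KCl, 0.05% low protease BSA, 2.5% glycerol, 0.01% Tween-20. ClpP 10 microg/mL final; 20 min RT; delta FRET normalized to ADEP and DMSO controls.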
Sfp inh – Sfp phosphopantetheinyl transferase inhibition; Potency, µM, for the others: max response, negative = inhibition, hits mostly inhibitors; AID 1490; Biochemical Sfp PPTase activity, qHTS; 3.5% of 310,000 active; active means well fitted inhibition curve with a large enough effect; inconclusive means small, poorly fitted or top-dose-only effect, or another doubt; inactive means no such curve, though single readings can be large or run the other way;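 further: the enzyme is Sfp with the accession as filed and its product quenches rhodamine fluorescence; potency means the concentration at half of the fitted maximal effect; 0% = enzyme reaction without inhibitor and -100% = no enzyme wells; top concentration of the series not given in the record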
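Buffer: 50 mM Hepes-Na pH 7.6, 10 mM MgCl2, 0.01% Nonidet P-40, 0.01% BSA. Enzyme 15 nM, pre-exposed to compound 15 min; substrates then added and fluorescence change tracked over 30 min.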
An asterisk follows results filed as active; u = inconclusive; x = not tested or not shown; & = joins results of further samples; [ ] = remark or other dose.

SMILES	TRPV1 PAM	Menin-MLL FL inh	gsp antag	D2 potentiator	gsp ag	ClpP mod	Sfp inh
COc1ccc([C@@H]2CC(=O)c3c(O)cc(O)cc3O2)cc1O	8	-11	-4%	-20	x	0.8%	25%&10%
CCOC(=O)CN1C(=O)C(=O)c2cccc(C)c21	3	1.5	6%	-29	29%	1.6%	-3%
CCCNC(=O)[C@H](Cc1c[nH]c2ccccc12)NC(=O)c1ccccc1Cl	8	4.5	9%	-35	0%	1.1%	17%
Cc1cccc(N2C(=O)Cc3ccccc3C2=O)c1	5	-6.7	-3%	-2	-25%	x	9%
CCN(CC)CCN(Cc1cc2cc3c(cc2[nH]c1=O)OCO3)C(=S)NCCOC	6	-3.1	15%	-16	23%	4.2%	8%
Cc1ccc(-c2nnc(SCC(=O)N3CCN(c4ccccc4)CC3)o2)cc1	-3	-1.8	15%	-13	26%	-0.3%	10%
Cc1c(N=C2NC(=O)C(CC(=O)Nc3ccc(Cl)cc3)S2)c(=O)n(-c2ccccc2)n1C (stereo unspecified)	22	6.8	-5%	8	u	-2.5%	18%
C=CCn1c(=NC(=O)C2COc3ccccc3O2)sc2cccc(OC)c21 (stereo unspecified)	x	7.6	1%	-9	-37%[inhibitor]	-16%	6%
COc1cccc(C2CC(C(F)(F)F)n3ncc(C(=O)NCC4CCCO4)c3N2)c1 (stereo unspecified)	-19	-1.5	-11%	-7	-2%	-0.9%	-1%
COc1ccc(NC(=O)CC(C(=O)O)C(C)c2ccccc2)cc1 (stereo unspecified)	0	-1.1	0%	-1	u	x	15%
COc1cc2c(cc1OC)C(c1cccc([N+](=O)[O-])c1)=NCC2	-3	-2.0	-4%	-6	-12%[15.4 µM]	0.4%	14%
O=C(COc1ccc2ccccc2c1)NN1C(=O)c2ccccc2C1=O	3	5.0	14%	-3	-8%[15.4 µM]	u	7%
COCCNC(=O)CSc1cc(=O)n(C)c2cc(Cl)ccc12	2	-3.6	-1%	-4	u	x	-11%
COc1cc(/C=N/NC(=O)CC#N)ccc1Oc1nc(Cl)ncc1F	6	5.9	-13%	-12	-1%	1.1%	-1%
Cc1ccc(/C=C(\C#N)C(=O)Nc2cccc3ncccc23)o1	-4	u	6%	11	0%[15.4 µM]	-4.2%	8.9µM*
C=CCOc1ccc(/C=C(\C#N)C(=O)Nc2ccccn2)cc1	8	-5.0	9%	-3	-32%[inhibitor]	-13%	15%
O=C1c2ccccc2NC(c2cn[nH]c2-c2ccc(Cl)cc2)N1O (stereo unspecified)	5	1.2	1%	-8	-16%	u	-3%
CCOC(=O)Cc1csc(NS(=O)(=O)c2ccc(C(F)(F)F)cc2)n1	u	2.3	-17%	-16	5%[15.4 µM]	0.4%	12%
COc1ccc(C(=O)c2c(O)cc(-c3ccc(OC)cc3)oc2=O)cc1	1	5.4	4%	-13	0%	-1.6%	10%
Cn1/c(=N/NC(=O)c2ccccc2F)sc2ccccc21	4	7.6	-1%	-7	17%	x	14%
O=C(N/N=C\c1ccccc1F)c1ccc(-c2ccccc2)cc1	-5	x	1%	-8	19%	-0.5%	-1%
CCCCC(=O)Nc1ccc(NC(=S)NC(=O)CCCCl)cc1OC	-7	4.4	3%	0	-12%[15.4 µM]	-2.4%	1%
COc1ccccc1-n1c(SCC(=O)N2CCCCC2)nc2cccnc21	-31	-0.4	9%	-6	-23%	-3.2%	5%
CCN1CCN(C(=S)Nc2cccc([N+](=O)[O-])c2)CC1	8	3.7	6%	-9	7%[15.4 µM]	-3.0%	-22%
NNC(=O)c1oc2nc(-c3ccccc3)cc(-c3ccco3)c2c1N	-5	u	-25%	7	-6%[15.4 µM]	x	-13%
Additional entries
SMILES	TRPV1 PAM	Menin-MLL FL inh	gsp antag	D2 potentiator	gsp ag	ClpP mod	Sfp inh
O=C(CN1C(=O)NC2(CCCCCC2)C1=O)Nc1ccc([N+](=O)[O-])cc1	x	x	1%	-13	-3%[15.4 µM]	u	x
Cc1cccc(-n2nnnc2-c2cnccc2C(F)(F)F)c1C	4	-0.1	-9%	-10	5%[15.4 µM]	x	-24%
Cn1c(N)c(C(=O)c2ccccc2)c(=O)n(C)c1=O	-4	1.0	9%	-7	6%	-0.5%	23%
COc1ccccc1/C=C1\SC(N2CCC(C)CC2)=NC1=O	-17	-2.5	u	-23	41%	-2.9%	-11%
Cc1ccc(C)c(OCCC(=O)OCC(=O)N(C)c2c(N)n(Cc3ccccc3)c(=O)[nH]c2=O)c1	-9	x	7%	6	4%[15.4 µM]	x	x
O=C(CC(Nc1ccccc1)C(=O)O)c1ccccc1 (stereo unspecified)	-5	9.6	6%	-10	-8%[15.4 µM]	0.2%	16µM*
CCOC(=O)c1sc(NC(=O)Nc2ccccc2Cl)cc1C	-15	4.2	-71%	-32	7%	u	u
CN1CCN(NC(=O)Nc2ccc(Br)cc2)CC1	6	x	9%	-26	-5%	-1.1%	8%
Cc1ccsc1/C=N/NC(=O)c1ccc([N+](=O)[O-])cc1	-14	-0.3	6%	-9	-7%[15.4 µM]	x	1%
CCOc1ccccc1NC(=O)CCNC(=O)Cn1ccc2ccccc2c1=O	-3	-1.8	9%	-3	-5%	x	15%
CCCc1nc2ccccc2c(=O)n1CC(=O)c1ccc(OC)cc1	23	-3.4	10%	-1	9%	x	9%
CC1(C)CC(=O)C=C(NCCN2CCN(C(=S)NC3CCCCC3)CC2)C1	22	1.7	4%	-9	29%	x	9%
C/C(=N\OC(=O)c1c(-c2ccccc2Cl)noc1C)c1ccncc1	5	-3.5	-4%	-7	20%[15.4 µM]	x	5µM*
CCCCCn1nc(C)c2c(C)cc(=O)[nH]c21	-12	0.0	0%	-1	21%	-14%	14%
COc1ccc(OC)c(NC(=O)COC(=O)c2ccc(S(=O)(=O)N3CCCCC3)cc2)c1	x	x	x	-9	-4%	0.3%	x
COc1ccc(OC)c(NC2=C(Cl)C(=O)N(Cc3ccccc3)C2=O)c1	-11	1.1	-9%	-4	5%[15.4 µM]	x	7%
CC(C)Cc1cc(C(=O)N2CCN(c3ccc(F)cc3)CC2)no1	-25	2.2	10%	-3	41%	2.1%	10%
O=[N+]([O-])c1cccc(-c2nnn(C34CC5CC(CC(C5)C3)C4)n2)c1	9	1.9	-1%	1	6%	-1.1%	8%
O=C1CN(C(=O)COC(=O)c2ccco2)c2ccccc2N1	-5	x	8%	-3	-36%[inhibitor]	1.9%	x
CCc1cccc(NC(=O)C2CCCC2)c1	-31	2.0	-15%	12	14%	-1.3%	13%
Cc1ccccc1N=C(NO)c1cccnc1	-1	0.1	12%	-10	0%	-1.4%	5%
CN1CCc2c(sc(NC(=O)c3ccc(S(=O)(=O)N4CCOCC4)cc3)c2C(N)=O)C1	6	u	1%	-5	29%	-7.0%	20%
CC1CN(C(=O)COC(=O)c2ccc(S(=O)(=O)N(C)C)cc2)CC(C)O1 (stereo unspecified)	-12	6.2	7%	-2	0%	x	16%
CC1CCN(Cc2c(C(=O)N/N=C/c3cccc(C(F)(F)F)c3)nnn2-c2nonc2N)CC1	6	5.6	u	-9	-4%[15.4 µM]	-0.4%	19%
COc1ccc(/C=N/Nc2nc3ccccc3[nH]2)c(OC)c1OC	x	-1.6	u	-9	-3%[15.4 µM]	x	-14%
CN(C)c1ccc(C(C(=O)NC2CCCCC2)N(Cc2ccco2)C(=O)c2snc(C(N)=O)c2N)cc1 (stereo unspecified)	-4	-0.6	-6%	20	-4%[15.4 µM]	-2.3%	9%
CCCCOc1ccc(C(=O)NCC(=O)NNC(=O)c2ccco2)cc1	x	x	6%	2	12%[15.4 µM]	-13%	x
O=C(O)CSc1nnc(CNc2ccccc2Cl)n1-c1ccccc1	2	-0.7	-4%	-13	-16%	0.8%	20%

Some of these compounds in order of the gsp ag value, ascending:
Molecule	gsp ag
Cn1c(N)c(C(=O)c2ccccc2)c(=O)n(C)c1=O	6%
CC1(C)CC(=O)C=C(NCCN2CCN(C(=S)NC3CCCCC3)CC2)C1	29%
CC(C)Cc1cc(C(=O)N2CCN(c3ccc(F)cc3)CC2)no1	41%

Entries above that contain an aryl methoxy group, in the order listed:
SMILES	TRPV1 PAM	Menin-MLL FL inh	gsp antag	D2 potentiator	gsp ag	ClpP mod	Sfp inh
COc1ccc([C@@H]2CC(=O)c3c(O)cc(O)cc3O2)cc1O	8	-11	-4%	-20	x	0.8%	25%&10%
C=CCn1c(=NC(=O)C2COc3ccccc3O2)sc2cccc(OC)c21 (stereo unspecified)	x	7.6	1%	-9	-37%[inhibitor]	-16%	6%
COc1cccc(C2CC(C(F)(F)F)n3ncc(C(=O)NCC4CCCO4)c3N2)c1 (stereo unspecified)	-19	-1.5	-11%	-7	-2%	-0.9%	-1%
COc1ccc(NC(=O)CC(C(=O)O)C(C)c2ccccc2)cc1 (stereo unspecified)	0	-1.1	0%	-1	u	x	15%
COc1cc2c(cc1OC)C(c1cccc([N+](=O)[O-])c1)=NCC2	-3	-2.0	-4%	-6	-12%[15.4 µM]	0.4%	14%
COc1cc(/C=N/NC(=O)CC#N)ccc1Oc1nc(Cl)ncc1F	6	5.9	-13%	-12	-1%	1.1%	-1%
COc1ccc(C(=O)c2c(O)cc(-c3ccc(OC)cc3)oc2=O)cc1	1	5.4	4%	-13	0%	-1.6%	10%
CCCCC(=O)Nc1ccc(NC(=S)NC(=O)CCCCl)cc1OC	-7	4.4	3%	0	-12%[15.4 µM]	-2.4%	1%
COc1ccccc1-n1c(SCC(=O)N2CCCCC2)nc2cccnc21	-31	-0.4	9%	-6	-23%	-3.2%	5%
COc1ccccc1/C=C1\SC(N2CCC(C)CC2)=NC1=O	-17	-2.5	u	-23	41%	-2.9%	-11%
CCCc1nc2ccccc2c(=O)n1CC(=O)c1ccc(OC)cc1	23	-3.4	10%	-1	9%	x	9%
COc1ccc(OC)c(NC(=O)COC(=O)c2ccc(S(=O)(=O)N3CCCCC3)cc2)c1	x	x	x	-9	-4%	0.3%	x
COc1ccc(OC)c(NC2=C(Cl)C(=O)N(Cc3ccccc3)C2=O)c1	-11	1.1	-9%	-4	5%[15.4 µM]	x	7%
COc1ccc(/C=N/Nc2nc3ccccc3[nH]2)c(OC)c1OC	x	-1.6	u	-9	-3%[15.4 µM]	x	-14%
